PABP polyA inh: blocks human PABP binding to poly(A) RNA | P11940 | fluorescence polarization | inhibition, % at 35 µM | actives 1% (n = 290,000);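 active means 50% or more with normal probe brightness, or confirmed in later tests; inconclusive means above 50% with abnormal brightness, or retests that disagree; inactive means below 50% or failed in later tests; about a fifth of its hits are not listed in these tables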;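 further: calls also rest on retests at 20 µM and on dose response follow-up; controls were probe without protein and protein plus probe with vehicle; some compounds called inactive have numbers as strong as hits; many hits fall short of the cut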
Target sequence (P11940 whole entry, looked up): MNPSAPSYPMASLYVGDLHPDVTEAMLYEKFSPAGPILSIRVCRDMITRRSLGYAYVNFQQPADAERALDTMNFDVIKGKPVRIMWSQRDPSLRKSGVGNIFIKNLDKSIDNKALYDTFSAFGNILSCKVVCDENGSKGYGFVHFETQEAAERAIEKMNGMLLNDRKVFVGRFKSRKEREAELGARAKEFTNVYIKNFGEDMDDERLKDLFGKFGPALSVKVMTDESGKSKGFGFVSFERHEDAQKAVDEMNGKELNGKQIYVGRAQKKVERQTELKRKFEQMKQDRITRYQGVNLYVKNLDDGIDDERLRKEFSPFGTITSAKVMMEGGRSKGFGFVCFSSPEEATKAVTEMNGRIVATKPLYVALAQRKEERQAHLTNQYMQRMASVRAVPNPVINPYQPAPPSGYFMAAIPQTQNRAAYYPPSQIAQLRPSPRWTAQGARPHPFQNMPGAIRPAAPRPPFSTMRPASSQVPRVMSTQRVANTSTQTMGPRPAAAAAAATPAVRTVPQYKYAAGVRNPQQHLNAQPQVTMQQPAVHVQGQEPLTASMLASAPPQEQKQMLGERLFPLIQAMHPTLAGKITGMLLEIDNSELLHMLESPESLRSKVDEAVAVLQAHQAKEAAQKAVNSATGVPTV
eIF4H FP inh: inhibitors of RNA binding by human eIF4H; Q15056; eIF4H fluorescence polarization binding assay; inhibition, % at 35 µM; actives 0.94% (n = 290,000); AID 2012;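 active means 50% or more with normal probe brightness, or confirmed in later tests; inconclusive means above 50% with abnormal brightness, or retests that disagree; inactive means below 50% or failed in later tests; about a fifth of its hits are not listed in these tables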;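 further: calls also rest on retests at 20 µM and on dose response follow-up; 0% = protein and probe with vehicle and 100% = probe without protein; strong numbers were not always called active; many hits fall short of the cut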
Rce1 inh: yeast Ras-converting enzyme inhibition; yeast membranes, quenched prenylated peptide cleavage fluorescence; actives 0.27% (n = 290,000); calls only; AID 2563;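 active means fall in fluorescence gain of 50% or more versus controls, with final raw signal at or below 3038400; inconclusive means same 50% fall but final raw signal above 3038400; inactive means fall in fluorescence gain under 50%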;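 further: plate controls were neutral control wells for no effect and wells lacking membranes for full effect; tested at 10 µM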
MT1-MMP act inh: MT1-MMP (human) activation inhibition | P50281 | AID 651647 | GFP/RFP ratio change, % at 20 µM | actives 0.061% (n = 360,000) | HT1080 RFP-PRO-GFP cells, GFP/RFP ratio fluorescence, overnight; percent of plate control window, DMSO zero;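 active means GFP/RFP ratio change of at least 30% with cell ATP level not reduced by more than half and red fluorescence within 50% of control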; further: strong numbers were not always called active
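Material: RFP-PRO-GFP reporter HT1080 cells. Dosing: single-point 20 µM compound, 1% DMSO. Controls: DMSO and RFP-L50D-GFP cell wells. Timing: cells overnight before dosing, compound overnight, 37 °C, 5% CO2. Measure: GFP/RFP fluorescence ratio.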
Env fusion inh: HIV envelope-mediated fusion inhibition; HeLa-JRFL Env/CEM21 cell fusion, luciferase; inhibition, % at 12.3 µM; actives 1.1% (n = 360,000); AID 651610;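 active means mean replicate inhibition score of at least 50 and every replicate individually at or above 50; inconclusive means only one of the two criteria met; inactive means mean below 50 and not all replicates reaching 50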;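 further: 0% = plate neutral controls and 100% = maraviroc near 300 nM; one replicate is shown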
CSC inhib: cancer stem cell inhibition; inhibition, % at 7.5 µM; cancer stem cell-like cells viability, luminescence; actives 1.1% (n = 300,000); AID 2717;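 active means mean at 75% or more and at least half the replicates too; inconclusive means mean and replicates disagree; tested in HMLE shEcad cells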;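 further: 0% = median of negative and 100% = median of positive control wells; the first replicate is given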
UUG fidelity: modulators of start codon recognition fidelity in yeast; S. cerevisiae UUG-firefly luciferase reporter, luminescence/redox ratio; activity score, % at 18.7 µM; actives 0.13% (n = 350,000); AID 602363;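 active means replicate mean at a twofold rise or more, about +100% in these data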;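 further: firefly luciferase made from a UUG start codon reports start codon fidelity; reporter light over untreated wells divided by growth signal over untreated wells; some hits fall short of that in this replicate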
MT1-MMP act inh RFP: further read-out of MT1-MMP act inh, marked with its call; RFP signal change, %; measured here: RFP expression control read;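 0 = vehicle wells; hits needed this value within 50% of zero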
* marks the source's active call; other numbers are inactive results; i = inactive; ? = inconclusive; . = not tested or not shown. Only part of the results is shown, so the mix of outcomes need not match the whole.

SMILES	PABP polyA inh	eIF4H FP inh	Rce1 inh	MT1-MMP act inh	MT1-MMP act inh RFP	Env fusion inh	CSC inhib	UUG fidelity
Cc1cccc(C)c1NCc1n[nH]c(=S)n1-c1ccccc1	-4	-7	i	0	0	1	-13	-6
O=C(CSc1ncnc2c1oc1ccccc12)c1cccs1	-6	-2	i	-3	-1	.	-3	.
O=C1C=C(c2ccc3[nH]ccc3c2)C[C@@H](c2ccc(Cl)cc2)C1	.	.	.	5	-2	-28	51	-8
COc1ccccc1C(=O)NNC(=S)NC(=O)c1cc(OC)c(OC)c(OC)c1	4	7	i	10	-2	29	-2	.
CC(=O)c1ccc(OCCCC(=O)NC2CCC(C)CC2)cc1 (stereo not drawn)	-16	-2	i	-1	-3	-3	-4	-4
Cc1ccc(SCCNC(=O)C(CO)(CO)CO)cc1	-1	5	i	2	3	.	-7	-16
CCOc1ccc2nc(N3CCCN(C(=O)Nc4ccccc4C)CC3)c(C#N)cc2c1	28	11	i	-22	-6	-36	24	-10
O=c1nc(Nc2ccc([N+](=O)[O-])cc2)[nH]c(=O)[nH]1	-3	-7	i	2	11	6	1	-8
Cc1ccc(NC(=O)CN2C(=O)COc3ccc(S(=O)(=O)N4CCCC4)cc32)c(C)c1	0	-6	i	6	4	12	-27	-7
Cc1cc(N2CCCCCC2)n2nc(C)c(-c3ccccc3)c2n1	-8	-2	i	1	-20	2	22	-2
CN1c2ccccc2C(O)=C(C(=O)Nc2ccccc2)S1(=O)=O	30	20	i	-2	5	-10	-6	-13
CCN(CC)S(=O)(=O)c1ccc(N2CCOCC2)c(NC(=O)CC23CC4CC(CC(Br)(C4)C2)C3)c1	-3	-5	i	1	7	-21	.	-2
O=C(O)CCCn1cc(NC(=O)COc2ccc(F)cc2F)cn1	-1	0	i	-3	1	-17	-6	-9
CC(C)(C)OC(=O)C[C@H]1C/C=C\C[C@H](CC(=O)N(CCO)Cc2ccccc2)C(=O)NCCOC1=O	.	.	.	7	-1	7	-18	14
CCOC(=O)c1sc(NC(=O)CN2C(=O)NC3(CC(C)CC(C)(C)C3)C2=O)c(C(=O)OCC)c1C (stereo not drawn)	-20	-20	i	-2	-7	.	1	.
CNC(=O)/C(C#N)=c1\s/c(=C/C(=O)OC)c(=O)n1-c1ccccc1	1	-16	i	8	14	5	.	27
O=C(COC(=O)c1ccc(O)cc1)NCc1ccc2c(c1)OCO2	-14	-4	i	-2	2	-2	-3	-1
CCn1nccc1C(=O)Nc1ccc(C)c(C)c1	-3	0	i	-2	-1	.	2	-5
Cc1cccc(NC(=O)CSCC(=O)NNC(=O)c2ccoc2C)c1	2	3	i	-6	1	.	-3	-10
CCOC(=O)c1nnc2cc(C)nn2c1C	9	-2	i	0	2	5	-9	-10
CNS(=O)(=O)c1cccc(C(=O)OCC(=O)Nc2cc(F)ccc2F)c1	-3	-2	i	-2	3	15	-4	-14
CCSc1nc2nc(C)cc(C)n2n1	-7	-12	i	1	6	.	.	11
CCN1C(=O)[C@H]2[C@H]3CN=C(SCc4ccccc4)N3[C@@](Cc3ccccc3)(C(=O)OC)[C@H]2C1=O	.	.	.	-1	-4	?	.	-7
COc1ccc(C(=O)N/C(=C/c2cccc3ccccc23)C(=O)NCCc2c[nH]c3ccccc23)cc1OC	-5	-20	i	-3	-8	.	-1	-8

Some of these compounds in order of molecular weight, smallest number first:
SMILES	PABP polyA inh	eIF4H FP inh	Rce1 inh	MT1-MMP act inh	MT1-MMP act inh RFP	Env fusion inh	CSC inhib	UUG fidelity
CNS(=O)(=O)c1cccc(C(=O)OCC(=O)Nc2cc(F)ccc2F)c1	-3	-2	i	-2	3	15	-4	-14
CC(C)(C)OC(=O)C[C@H]1C/C=C\C[C@H](CC(=O)N(CCO)Cc2ccccc2)C(=O)NCCOC1=O	.	.	.	7	-1	7	-18	14
COc1ccc(C(=O)N/C(=C/c2cccc3ccccc23)C(=O)NCCc2c[nH]c3ccccc23)cc1OC	-5	-20	i	-3	-8	.	-1	-8

Further structures
SMILES	PABP polyA inh	eIF4H FP inh	Rce1 inh	MT1-MMP act inh	MT1-MMP act inh RFP	Env fusion inh	CSC inhib	UUG fidelity
COC(=O)CN(C)C(=O)c1ccccc1OC1CCN(S(C)(=O)=O)CC1	8	5	i	-3	-2	-8	2	-5
Fc1ccc(CSc2nsc(SCc3ccc(F)cc3)n2)cc1	3	3	i	4	1	.	17	-6
CC(C)(C)OC(=O)N(CCc1ccccc1)Cc1ccc(OCc2cccc(NC(=O)c3ccccc3)c2)cc1	.	.	.	-4	-15	8	.	-11
COc1ccccc1NC(=O)CCN1CCN(c2ccc(Cl)cc2)CC1	4	20	i	0	-3	14	6	5
CC(C)c1onc(C(=O)N(C)C2CCCCC2)c1[N+](=O)[O-]	10	-5	i	-1	4	-8	-15	.
CCc1ccccc1NC(=S)N(CCCN1CCOCC1)Cc1cccs1	3	-1	i	-3	-3	18	4	-18
C=CCSc1nnc(-c2ccccc2N=Cc2c(C)[nH]n(-c3ccccc3)c2=O)c(=O)[nH]1	4	-2	.	3	-1	.	-3	-14
Cc1c(C(=O)N2CCOCC2)c(S(=O)(=O)Nc2ccc(OC(F)(F)F)cc2)c(C)n1C	-5	4	i	-2	-4	1	-1	-10
CN(CC(=O)Nc1cccc(F)c1)C(=O)c1cn(-c2ccccc2)nc1-c1ccccc1	-2	-4	i	0	2	-1	-15	8
CCO[C@H]1c2c(ccc3ccc(=O)oc23)OC(C)(C)[C@H]1O	.	.	.	1	1	10	-13	-1
O=C(c1ccc(S(=O)(=O)N2CCCC2)cc1)N1CCCc2ccccc21	-1	-2	i	-1	-2	.	-7	-4
CC12CCC(=O)N1C(C(=O)NNC(=O)COc1cccc(C(F)(F)F)c1)CS2 (stereo not drawn)	.	.	i	1	2	-32	-3	-9
O=C(OCC(=O)N1CCCCCC1)c1ccc(S(=O)(=O)N2CCOCC2)cc1	3	4	i	-8	-2	0	5	.
COc1ccc(-c2csc(NC(=O)C3CSC4(C)CCC(=O)N34)n2)cc1OC (stereo not drawn)	.	.	i	7	-3	-7	.	-19
Cc1ccc(-n2nnc3c(=O)n(CC(=O)NCC4CCCO4)cnc32)cc1 (stereo not drawn)	-6	9	i	4	1	-3	-9	-14
Cc1cccc(Nc2nc(N3CCCCC3)nc(N3CCCCC3)n2)c1	2	-4	.	2	-10	.	60	-14
CC1CC(C)CN(CCCNC(=O)c2cc3c(=O)[nH]c4ccccc4c3n2C)C1 (stereo not drawn)	6	-3	i	2	1	8	30	.
CCCC(=O)OCC(=O)Nc1cc(C(C)(C)C)nn1-c1ccccc1	10	6	.	0	-1	.	5	-17
C=CCOc1ccccc1CNCCNC(=O)c1nonc1N	0	-5	i	0	1	14	-3	.
CCOC(=O)C1=CN(Cc2cccc(F)c2)S(=O)(=O)NC1c1ccc(F)c(Cl)c1 (stereo not drawn)	.	.	.	1	-7	-4	.	-13
Cc1cc(C)cc(OCC(=O)N2N=C(c3cccnc3)CC2(O)C(F)(F)F)c1 (stereo not drawn)	5	-13	i	3	-6	18	-10	-5
COc1cc(O)c(C(CCN2CCN(c3ccccc3)CC2)c2ccc3c(c2)OCO3)c(OC)c1 (stereo not drawn)	-5	-9	i	3	-3	-66	30	-3
O=C(Nc1ccc(Cl)cn1)C1COc2ccccc2O1 (stereo not drawn)	4	3	i	-4	-1	-7	-11	.
O=C(Nc1nnc(SCCN2CCOCC2)s1)C1CC(=O)N(c2ccc(F)cc2)C1 (stereo not drawn)	-4	-4	i	-2	3	.	0	-18
COc1ccc(C(=O)Nc2cccc(NC(=O)c3cccs3)c2)cc1	-4	-12	i	2	-3	-21	7	-4
O=C(O)c1cccc(N2C(=O)CSC2c2c(F)cccc2Cl)c1 (stereo not drawn)	-10	-2	i	-1	1	-6	.	-19
CC(=O)N1c2ccccc2Sc2ccc3ccccc3c21	.	.	.	-5	-3	3	.	-32
CC(C)OCCCN1C(=O)c2ccccc2C1C(=O)NC1CCCCC1 (stereo not drawn)	-10	8	i	2	-3	18	-11	24
CCOC(=O)C1=C(C)Nc2ccccc2N=C1NC(=O)c1oc2ccccc2c1COC	.	.	.	-19	0	.	16	-16
CCOC(=O)c1c(-c2ccsc2)csc1N	23	-22	i	2	2	.	0	.
COc1ccc(NC(=O)C(C)SCc2ccccc2)cc1 (stereo not drawn)	-1	11	.	1	-1	-1	-10	.
Cc1cc(OCC(=O)N(C)C2CCCCC2)cc(C)c1Cl	-5	2	i	-3	-3	3	-24	.
COC(=O)c1ccc(-n2nnnc2SC)cc1	5	-8	i	3	1	-81	-13	13
CCN1C(=O)C(=O)N(CC(=O)Nc2ccccc2Oc2ccccc2)C1=O	11	10	.	1	0	-8	0	.
Cn1c(CN2CCCC2)nc2cc(NC(=O)COc3ccc(Cl)cc3)ccc21	-1	-1	i	4	-9	.	25	-3
CNC(=S)NNC(=O)c1cccn(Cc2cccc(C(F)(F)F)c2)c1=O	10	-1	i	2	1	6	-29	-20
O=C(CCCCCn1c(=O)[nH]c2ccsc2c1=O)N1CCN(C2CCCCC2)CC1	-6	7	.	-1	2	4	-17	-8
Cc1ccc2oc(=O)n(CC(=O)O)c2c1	21	-2	i	-5	-1	20	-4	-15
O=C(CCC(=O)N(CC(=O)NC1CCCC1)c1ccccc1F)Nc1nccs1	-2	-5	i	0	4	4	.	-14
Cc1nnc(N/N=C/c2ccco2)n1N	-2	9	i	3	3	-4	7	-19
O=C(CN1C(=O)NC2(CCc3ccccc32)C1=O)NC1CCCCC1 (stereo not drawn)	.	.	.	3	2	-51	.	-25
CS(=O)(=O)NCCSCc1c(F)cccc1Cl	-12	9	i	5	3	.	.	-4
CN(C)C(=S)Nc1ccc2c(c1)OCO2	7	-12	i	-2	7	10	5	.
COc1ccccc1/C=N/NC(=O)c1ccc(Br)cc1	-4	-4	i	-1	-1	-13	-14	-8
COc1ccc(C2(CNC(=O)Cc3ccccc3)CCCC2)cc1OC	-1	-12	i	-2	-2	-30	.	-10
Cc1nc2ccccc2n1CC(O)Cn1c2ccccc2c2ccccc21 (stereo not drawn)	-7	-8	i	-4	-4	.	16	-10
CC(=O)c1cc2c(C)c(C(=O)c3ccccc3)oc2cc1O	-1	-6	i	-93	0	-124	0	.
CCOC(=O)N1CCN(C(=O)CSc2ccc3nnc(CCNC(=O)c4ccccc4)n3n2)CC1	13	-5	i	-5	-2	-36	-29	.
O=C(Nc1cccc(C(F)(F)F)c1)C1Cc2c(-c3ccccc3Oc3ccccc3)ccnc2O1 (stereo not drawn)	.	.	.	-6	-23	31	.	-12
O=C(Nc1cccc(NC(=O)C2CC2)n1)C1CC1	2	-2	i	-7	0	30	2	-12
CCCC[n+]1ccn(-c2nc3ccccc3nc2[N-]S(=O)(=O)c2ccccc2)c1	14	3	i	-3	1	.	-10	-18
Cc1cccc(NC(=S)N2CCCCC2)c1	0	-2	i	0	5	-8	7	.
CCOc1cccc2cc(-c3nnc(NCc4ccco4)s3)c(=O)oc12	-2	10	i	-8	-1	-130	29	-8
COc1ccc(C(=O)N2CCC(C(=O)Nc3ccc4c(c3)OCCO4)CC2)cc1	-2	-3	i	3	8	.	-17	-32
CCCCC(=O)NC(=S)NNC(=O)c1ccc(Cl)cc1Cl	-7	20	i	8	4	17	.	-53
CCCCn1c(NCc2ccc(OC)cc2O)nc2ccccc21	.	.	.	-1	-6	-5	.	-11
COc1ccccc1-n1c(=O)oc2ccc(Cl)cc2c1=O	-12	2	.	-13	-36	.	.	.
